# Source: PubChem BioAssay (Southern Research Specialized Biocontainment Screening Center)
# Mtb bLac sens = beta-lactam sensitization of Mtb H37Rv, H37Rv | M. tuberculosis H37Rv growth with meropenem, percent inhibition; hits of this screen are not shown here | inhibition, % at 25 µM | 330,000 tested, 0.27% active | AID 434955, 2010;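 active means about 74% or more and at least 40 points above the plate without the antibiotic, then above 30% in a dose series; inconclusive means first-round hits that could not be retested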;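 further: growth measured after seven days incubation then overnight dye step; 0% = bacteria only wells and 100% = bacteria with antibiotic; twin plates without the antibiotic show which effects depend on it; some results filed as inactive read as strong as hits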
# * marks the source's active call; other numbers are inactive results; ? = inconclusive.
SMILES,Mtb bLac sens
COc1ccc(CN(C)C(=O)COc2cccc(-n3cnnn3)c2)cc1OC,-5.2
COc1cc(C)ccc1OCC(=O)OCC(=O)c1[nH]c(C)c(C(C)=O)c1C,2.2
O=C(Nc1cc(-c2ccccc2)nn1-c1ccccc1)c1ccccc1F,-4.1
NC(=O)C1CCN(C(=O)c2ccc(Cl)c(S(=O)(=O)N3CCCCCC3)c2)CC1,-3.4
NC(=O)C1CCN(C(=O)C2CC(=O)N(Cc3ccccc3)C2)CC1 (stereo not drawn),-10.4
Cc1noc(C)c1NC(=O)N(C)C[C@@H]1Oc2ccc(NS(=O)(=O)c3c(C)noc3C)cc2C(=O)N([C@H](C)CO)C[C@H]1C,2.0
Cc1ccsc1C(=O)NC1CCCCC1C (stereo not drawn),-0.5
CC(C)(C)n1ncc2c(=O)n(Cc3cc(F)c(Cl)cc3Cl)cnc21,-2.5
CCCn1c(=O)n(C)c(=O)c2c(SCC(=O)Nc3cc(C)on3)nc(C(C)(C)C)nc21,5.4
COc1cc(OC)c(C(=O)NNC(=O)c2ccccc2-n2cccc2)cc1OC,-1.9
OCCNc1nc(-c2ccccc2)c2cc(Br)ccc2n1,-11.8
CCCOc1ccc(C(F)(F)F)cc1NC(=O)c1cc(C)on1,-4.5

# A second format for three compounds above:
Compound	Mtb bLac sens
COc1cc(OC)c(C(=O)NNC(=O)c2ccccc2-n2cccc2)cc1OC	-1.9
OCCNc1nc(-c2ccccc2)c2cc(Br)ccc2n1	-11.8
CCCOc1ccc(C(F)(F)F)cc1NC(=O)c1cc(C)on1	-4.5

# Continuation.
SMILES,Mtb bLac sens
c1ccc(CCc2cc3ccccc3[nH]2)cc1,7.5
COc1ccc([C@H]2CC(=O)C=C(c3ccc(C)c4ccccc34)C2)cc1,84.1
O=C(NC1CCCCC1)C(c1ccccc1)N(Cc1cccnc1)C(=O)c1csnn1 (stereo not drawn),-6.7
C[C@H](CO)N1C[C@H](C)[C@@H](CN(C)C(=O)Nc2ccccc2)Oc2ccc(NS(=O)(=O)c3cn(C)cn3)cc2C1=O,4.4
CCc1ccc([C@H]2C(C(=O)O)=C[C@@H](CC)N2S(=O)(=O)c2ccc(C)cc2)cc1,4.8
O=C(O)C1CCN(C(=O)CSc2nc3cc(Cl)ccc3c(=O)n2Cc2ccccc2)CC1,-0.1
CC1(c2cccc(Br)c2)NC(=O)N(CC(=O)Nc2ccc3c(c2)OCO3)C1=O (stereo not drawn),-6.4
N#CCC(=O)Nc1ccc(C(=O)OCC(=O)c2c[nH]c3ccccc23)cc1,-7.2
Cc1cc(C(=O)NCCN2CCOCC2)c2ccccc2n1,-7.7
C=CC[C@H](CC(=O)NCCO)C(=O)N[C@H](COC(=O)[C@@H](CC=C)CC(=O)OC(C)(C)C)Cc1c[nH]c2ccccc12,-0.5
CSCCC(NS(=O)(=O)c1ccccc1F)C(=O)Nc1ccncc1 (stereo not drawn),-5.2
C=CCNc1oc(C2CCCC2)nc1C#N,-2.6
Cc1ccc(Nc2nnc(SCC(=O)c3c(N)n(C4CC4)c(=O)[nH]c3=O)s2)cc1C,6.8
CC(C)NC(=O)N(C)C[C@H]1Oc2ccc(NS(=O)(=O)c3ccccc3)cc2C(=O)N([C@H](C)CO)C[C@H]1C,8.3
CCOP(=O)(OCC)c1ccc2c(c1)C(=O)c1ccccc1CC2,2.2
Cc1cc(C)cc(NC(=O)CSc2nc3nc(C)cc(C)n3n2)c1,-6.5
COc1ccc(-c2c(-c3cc(OC)cc(OC)c3)n(C)c3ccc(-c4ccc(OC)nc4)cc23)cc1,45.9
O=C(Nc1ccccc1-c1nc2ccccc2[nH]c1=O)c1cccs1,-1.3
COc1ccc(CNC(=O)Cn2cnc3c(OCc4ccccc4)ncnc32)cc1,-5.2
CC(C)CNC(=O)/C=C/C=C/c1ccc2c(c1)OCO2,3.1
COc1ccc(C2=CC(=O)C[C@H](c3ccc(Cl)cc3)C2)cn1,10.4
C/C(CC(=O)NC1CCCCC1)=N\NC(=O)c1ccc(Br)cc1,3.9
CCC/C(C#Cc1ccsc1)=C1/c2ccccc2C(=O)N1c1ccccc1,-2.4
CN(CC(=O)NCc1ccc2c(c1)OCO2)S(=O)(=O)c1ccc(Cl)cc1,-1.5
Cc1ccc(NC(=O)COC(=O)c2ccc(Cl)nc2)cc1S(=O)(=O)N1CCCCC1,-0.7
CC(OC(=O)c1ccc2ncsc2c1)C(=O)N(C)C1CCCCC1 (stereo not drawn),-1.6
C#CCOCCOCCOCCNc1nc(N2CCN(C(=O)[C@H](CCC(=O)O)n3cc([C@@H](N)[C@H](C)CC)nn3)CC2)nc(N2CCN(C(=O)[C@H](CCC(=O)O)n3cc([C@@H](N)CCSC)nn3)CC2)n1,-8.3
COc1cc(Cl)ccc1OCc1cc(C(=O)N(C)Cc2cccc3cnccc23)no1,?
O=C(CCNS(=O)(=O)c1ccccc1)NNC(=O)COc1ccc(Cl)cc1,-1.6
Cc1ccc2c(c1)C1CN(C)CCC1N2S(=O)(=O)c1ccc(C#N)cc1 (stereo not drawn),1.3
COc1ccc(S(=O)(=O)N(C)C[C@H]2Oc3ccc(NC(=O)NC4CCCCC4)cc3C(=O)N([C@H](C)CO)C[C@@H]2C)cc1,-2.5
Cc1cccc(C)c1NC(=O)COC(=O)/C=C/c1ccc(S(=O)(=O)N2CCOCC2)cc1,3.2
C=CCn1c(C)cc(C(=O)CSc2nnc(C3CC3)n2C2CC2)c1C,5.9
COc1ccc(C2=CC(=O)C[C@H](c3ccc(F)cc3)C2)cc1OC,40.0
NCCCNCCCCNCCCN,-3.6
Cc1ccc(S(=O)(=O)N2CCN(C(=O)CCCN3C(=O)NC4(CCCC4)C3=O)CC2)cc1C,6.9
CCN(C(=O)CSc1nnc(-c2ccco2)n1CC)c1c(N)n(Cc2ccccc2)c(=O)[nH]c1=O,1.9
CCC(C)(C)C1CCc2[nH]nc(C(=O)NC3CCCC3)c2C1 (stereo not drawn),6.6
COc1ccc(NS(=O)(=O)c2cccc(C(=O)N3CCC3)c2)cc1,-0.6
C=CCN1C(=O)C(CC(=O)O)S/C1=N/N=C/c1ccc(N(CC)CC)cc1 (stereo not drawn),5.8
CCOc1ccc(N(C)S(=O)(=O)c2ccc(C)c(C(=O)NCc3cccs3)c2)cc1,-11.4
CN(CC(=O)Nc1ccc(Cl)cc1)C1=NS(=O)(=O)c2ccccc21,0.8
O=C(CSc1nnnn1-c1cccc(F)c1)NC1CCCCC1,-5.3
COc1cc(C(=O)OCc2ccccc2C#N)ccc1OCC(=O)N1CCOCC1,7.7
Cc1ccc(C2(C)NC(=O)N(CC(=O)Nc3ccc(N4CCOCC4)cc3N3CCOCC3)C2=O)cc1 (stereo not drawn),-0.4
O=C(O)C1=CC(=C(c2ccc(O)c(C(=O)O)c2)c2ccc(O)c(C(=O)O)c2)C=CC1=O,3.1
O=C(CC1CCCC1)Nc1ccc(Br)cc1,3.8
COc1ccc(-c2csc(N3CCC(C(N)=O)CC3)n2)cc1,6.6
Cc1ccc([C@H]2C(C(=O)O)=CC[C@@H](c3ccc(C(C)C)cc3)N2S(=O)(=O)c2ccc(C)cc2)cc1,-0.2
C[C@@]12C(=O)Nc3ccc(Br)cc3C(=O)N1[C@H]1c3cc(Cl)ccc3OC[C@@H]1[C@@H]2c1ccccc1,98.3
N#Cc1ccccc1NC(=O)CN1C(=O)NC(Cc2c[nH]c3ccccc23)C1=O (stereo not drawn),-0.5
CC(C)(C)C(=O)OCOC(=O)[C@@H]1N2C(=O)[C@@H](N=CN3CCCCCC3)[C@H]2SC1(C)C,-0.5
Cc1ccc(S(=O)(=O)N2CCOCC2)cc1NCC(=O)Nc1ccc(OC(F)(F)F)cc1,-15.2
COC(=O)[C@]1(C)N[C@H](CN(C)C(=O)Nc2ccccc2)[C@@H]2C(=O)N(Cc3ccccc3)C(=O)[C@@H]21,3.8
C=CCN1C(=O)/C(=C/c2ccc(Br)s2)C(=O)NC1=S,4.2
COc1ccc(C(=O)NCc2nnc(SCC(=O)NC3CCCCC3)n2C)cc1,-9.2
CC1(C)C(=O)Nc2ccccc2N1C(=O)COc1cc(Cl)ccc1Cl,-8.1
N#CCC(=O)Nc1ccc(C(=O)OCC(=O)NC2CCCCCC2)cc1,-1.9
O=C(NCc1ccccn1)c1c(-c2ccccc2)sc2ccccc12,1.7
COC(=O)[C@@]12CCCCN1[C@H](c1ccc(-c3ccc(F)cc3)c(OC)c1)[C@H]1C(=O)N(C)C(=O)[C@H]12,-5.0
# (next part)
SMILES,Mtb bLac sens
O=C(COc1ccc(-n2cnnn2)cc1)Nc1ccccc1OC(F)F,2.1
CN(c1ccccc1)S(=O)(=O)c1cccc(NC(=O)c2ccc(Cl)c([N+](=O)[O-])c2)c1,-0.3
COc1cc(/C=C2/SC(=S)N(CC(=O)O)C2=O)ccc1OC(=O)c1ccco1,2.0
CC(C)(C)OC(=O)N1CCC(NC(=O)c2[nH]cnc2C(=O)Nc2ccc(Cl)cc2)CC1,-2.9
O=C(O)CCC(=NNC(=O)c1cccc(S(=O)(=O)N2CCCCC2)c1)c1ccccc1,-0.5
CC(C)(C)c1ccc(C(=O)NC(=S)NNC(=O)COc2ccccc2)cc1,99.4
O=C(N/N=C/c1ccc([N+](=O)[O-])cc1)c1ccc(NS(=O)(=O)c2cccs2)cc1,1.3
CCOC(=O)[C@H]1[C@H]2COc3ccc(Cl)cc3[C@@H]2N2C(=O)c3ccccc3NC(=O)[C@@]12C,4.7
O=C(CSc1nc(C2CC2)n(-c2ccccc2)n1)NCc1ccco1,-3.2
CCN(CC)CCc1nc(-c2ccccc2)no1,-0.5
C[C@H]1CN([C@@H](C)CO)C(=O)Cc2cc(NC(=O)CCN3CCOCC3)ccc2O[C@@H]1CN(C)Cc1ccc(Oc2ccccc2)cc1,9.2
COc1cc2nc(CN3CCN(S(=O)(=O)c4ccc(Br)cc4)CC3)[nH]c(=O)c2cc1OC,-4.0

# As a working copy, part of the list above:
SMILES,Mtb bLac sens
O=C(CSc1nc(C2CC2)n(-c2ccccc2)n1)NCc1ccco1,-3.2
CCN(CC)CCc1nc(-c2ccccc2)no1,-0.5
C[C@H]1CN([C@@H](C)CO)C(=O)Cc2cc(NC(=O)CCN3CCOCC3)ccc2O[C@@H]1CN(C)Cc1ccc(Oc2ccccc2)cc1,9.2
COc1cc2nc(CN3CCN(S(=O)(=O)c4ccc(Br)cc4)CC3)[nH]c(=O)c2cc1OC,-4.0

# Next results follow:
SMILES,Mtb bLac sens
Cn1c(N)c(C(=O)COC(=O)c2ccccc2C(=O)c2ccc(Cl)cc2)c(=O)n(C)c1=O,-1.8
COc1ccc(C2=NN(C(=O)COC(=O)c3ccc(NC(=O)CC#N)cc3)C(c3ccco3)C2)cc1 (stereo not drawn),-4.7
c1ccc2ncccc2c1,-0.8
CCOC(=O)NC(=O)CSc1ccc(S(=O)(=O)N(C)C2CCCCC2)cn1,4.1
CN(CC1COc2ccccc2O1)C(=O)Cn1cc(C(F)(F)F)ccc1=O (stereo not drawn),-4.8
OC(CNCCc1c[nH]c2ccccc12)c1ccccc1 (stereo not drawn),-3.1
Cc1ccc2c(c1)C1CN(C)CCC1N2S(=O)(=O)c1cccc(F)c1 (stereo not drawn),-0.4
NC(=O)c1ccccc1OCC(=O)Nc1cccnc1Cl,-4.7
Cc1nn(CC(=O)NNC(=O)c2cccc(Br)c2)c(C)c1[N+](=O)[O-],?
CCCCN(C(=O)CN(C)CC(=O)Nc1cccc(OC)c1)c1c(N)n(CCCC)c(=O)[nH]c1=O,1.9
Nc1nc2nc(-c3ccccc3)cc(C(F)(F)F)c2s1,3.0
O=C(Nc1ccccc1N1CCOCC1)C1CCCO1 (stereo not drawn),-3.5

# An excerpt from above in order of count of non-hydrogen atoms, falling.
SMILES,Mtb bLac sens
COc1ccc(C2=NN(C(=O)COC(=O)c3ccc(NC(=O)CC#N)cc3)C(c3ccco3)C2)cc1 (stereo not drawn),-4.7
Cc1ccc(S(=O)(=O)N2CCN(C(=O)CCCN3C(=O)NC4(CCCC4)C3=O)CC2)cc1C,6.9
O=C(O)CCC(=NNC(=O)c1cccc(S(=O)(=O)N2CCCCC2)c1)c1ccccc1,-0.5

# Next section
SMILES,Mtb bLac sens
C=CCC[C@@H](Cc1ccc(F)cc1)C(=O)OC[C@@H](Cc1c[nH]c2ccccc12)NC(=O)[C@H](CC=C)CC(=O)N(CCO)Cc1ccccc1,7.0
COc1ccc(C(=O)Nc2ccc(S(=O)(=O)N3CCN(C)CC3)cc2)cc1[N+](=O)[O-],-9.5
CCCn1c(N)c(N(CCOC)C(=O)c2ccc(-c3ccccc3)cc2)c(=O)[nH]c1=O,-3.6
O=C(COC(=O)c1ccc(Cl)nc1)NNC(=O)c1ccc(Br)cc1,0.5
CC(C)NC(=O)Nc1ccc2c(c1)C(=O)N([C@H](C)CO)C[C@H](C)[C@@H](CN(C)S(=O)(=O)c1cccs1)O2,6.0
COc1ccccc1NC(=O)COC(=O)c1cc([N+](=O)[O-])ccc1N1CCCC1,70.4
COCC(C)n1c(C)cc(C(=O)COC(=O)c2cnc(Cl)c(Cl)c2)c1C (stereo not drawn),93.6
CN1CCN(C(=O)c2ccc(Cl)cc2)CC1,-6.7
COc1ccc(OCCCC(=O)Nc2cccc(S(=O)(=O)N3CCCCCC3)c2)cc1,18.2
Cc1ccc(-c2csc(NCCn3c(-c4ccncc4)nc4cc(C(F)(F)F)ccc43)n2)cc1,3.1
N#C/C(=C\c1ccc(O)c(O)c1)C(=O)NCCc1ccccc1,-1.7
O=[N+]([O-])c1ccc(CSC2=NCCN2)cc1,7.0
COC(=O)CCNC(=O)CCc1ccc(S(=O)(=O)N2CCCCCC2)cc1,-5.5
CN(Cc1cnn(C)c1)C(=O)C1CCC(=O)N(C2CCCCCC2)C1 (stereo not drawn),?
C[C@]12CC[C@H](OC(=O)CCC(=O)O)CC1=CCC1C2CC[C@@]2(C)C1CC[C@@H]2OC(=O)CCC(=O)O (stereo partly drawn),-0.7
CCOC(=O)c1sc(NC(=O)CSCc2c(C)noc2C)nc1C,-6.7
Nc1c(C(=O)CSc2n[nH]c(-c3ccccc3Br)n2)c(=O)[nH]c(=O)n1C1CC1,-3.2
CN(CC(=O)NCc1ccccc1Cl)CC(=O)Nc1ccccc1Br,1.8
CC(NC(=O)CNC(=O)c1ccc2c(c1)OCO2)c1ccc(S(N)(=O)=O)cc1 (stereo not drawn),-7.2

# A portion of the library; count on the stated rates, not on these rows.
